# Source: PubChem BioAssay (PCMD)
# Biofilm kill mix – clotrimazole potentiators killing C. albicans biofilm, primary screen, 4-compound mixtures; inhibition, % at 7.6 µM; C. albicans biofilm persisters + clotrimazole, fluorescence viability; primary screen in compound mixtures of four per well; actives 0.02% (n = 120,000); AID 1242, 2008;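 active = inhibition above 30.3% in the primary screen of four-compound pools, then above 30% when the compound was retested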;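 also: compounds exposed to preformed 24 h biofilms for 48 h; the number belongs to the whole pool; some results filed as inactive read as strong as hits; inactives centre near 12; 0% = biofilm with clotrimazole alone and 100% = kill control; retested singly at about 60 µM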
#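 Test system: C. albicans biofilms. Buffer or medium: RPMI/MOPS medium, pH 7.0. Timing: 48 h compound exposure at 37 °C. Technique: Alamar Blue fluorescence. Evaluation: percent inhibition of biofilm viability.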
# Starred values were filed as active, the others as inactive. These rows are one share of the data; rates above refer to the full screens.
SMILES,Biofilm kill mix
Cc1c(NC(=O)c2cccs2)c(=O)n(-c2ccccc2)n1C,-6
CCN(CC)S(=O)(=O)c1ccc(Cl)c(NC(=O)COc2ccc(OC)cc2)c1,9
O=[N+]([O-])c1ccc(/C=N/NC(=S)Nc2ccc(Cl)cc2Cl)s1,16
COC(=O)c1cn(Cc2ccccc2C)nn1,14
CC(=O)N(C)c1ccc(NC(=O)C(Sc2ccccc2)c2ccccc2)cc1 (stereo not given),-1
Cc1cc(C)c(N=Cc2c(O)n(-c3nccs3)c(=O)c3ccccc23)c(C)c1,20
Brc1cccc(CNCc2cccs2)c1,-5
Nc1nc(F)cc(NCc2ccccc2)n1,14
COc1cc(CN2CCC(CO)(CCOc3ccccc3)CC2)cc(OC)c1,8
Cc1ccc(Sc2ccc(NC(=O)CCl)cc2)cc1C,6
CC(=O)Oc1ccc(-n2c(=O)c3ccccc3c3ccccc3c2=O)cc1,7
CCOC(=O)c1cc(=O)n(-c2ccc(Cl)cc2C)[nH]1,10
CCCOC(=O)Oc1ccc2c(=O)c(Oc3cc(C)cc(C)c3)coc2c1,11
Cc1cc(C(=O)NCc2ccccc2Cl)n(-c2ccccc2)n1,29
Cc1ccc(Nc2nnc(-c3ccncc3)s2)c(Br)c1,4

# Next section; the last six above are carried over.
SMILES,Biofilm kill mix
Cc1ccc(Sc2ccc(NC(=O)CCl)cc2)cc1C,6
CC(=O)Oc1ccc(-n2c(=O)c3ccccc3c3ccccc3c2=O)cc1,7
CCOC(=O)c1cc(=O)n(-c2ccc(Cl)cc2C)[nH]1,10
CCCOC(=O)Oc1ccc2c(=O)c(Oc3cc(C)cc(C)c3)coc2c1,11
Cc1cc(C(=O)NCc2ccccc2Cl)n(-c2ccccc2)n1,29
Cc1ccc(Nc2nnc(-c3ccncc3)s2)c(Br)c1,4
COc1cccc(OCCSc2nc(C)c(Cc3ccccc3)c(=O)[nH]2)c1,11
Cn1c(SCC(=O)NC(=O)Nc2ccccc2)nnc1-c1ccncc1,19
O=C(N/N=C/c1cccs1)c1n[nH]c2c1CCCC2,6
Cc1ccc(NC(=O)C2CC(=O)N/C(=N/N=C/c3ccco3)S2)cc1 (stereo not given),21
COc1ccc(C2=CC(c3cccc(OC)c3)n3nnnc3N2)cc1 (stereo not given),9
CN(C)/C=C/C1=C([N+](=O)[O-])C(c2cccc([N+](=O)[O-])c2)NC(=O)N1 (stereo not given),14
COCCN1C=C(C(=O)OC)C(c2ccccc2Cl)C(C(=O)OC)=C1,19
Cc1cc(O)c(-c2ccno2)cc1Cl,3
O=C(COc1ccccc1)Nc1ccc(Cl)cn1,8
Cc1c(N=C2NN=C(c3ccc(Cl)cc3)CS2)c(=O)n(-c2ccccc2)n1C,0
Cc1cc(C)c2ccc(=O)n(CC(=O)N/N=C/c3ccccc3Cl)c2n1,16
O=C(/C=C/c1cn(-c2ccccc2)nc1-c1cccc(Cl)c1)N1CCN(c2ccccn2)CC1,-12
CC(=O)c1c(C)[nH]c(C(=O)OCC(=O)Nc2sc3c(c2C#N)CCC(C)C3)c1C (stereo not given),18
Cc1cc(N2CCOCC2)ccc1/C=C1\NC(=O)N(Cc2ccccc2F)C1=O,3
CN(C)C(=O)C1Cc2ccccc2CN1S(=O)(=O)c1cccs1 (stereo not given),9
O=C(CCl)Nc1cccc(Oc2ccccc2)c1,15
Cc1onc(-c2ccc(Cl)cc2Cl)c1-c1csc(N/N=C/c2ccccc2Cl)n1,13
O=C(Nc1nnc(-c2cccs2)o1)C1CC1,17
O=C(Nc1nnc(SCc2ccc(F)cc2)s1)C1CC(=O)N(c2ccc3c(c2)OCCO3)C1 (stereo not given),21
Cc1ccc(CNC(=O)CSc2nc(C)cs2)cc1,12
COc1ccc(C(=O)NNC(=O)c2snnc2C)cc1,19
CNC(=O)c1cc2cc(Cc3ccccc3Cl)ccc2oc1=O,26
Cc1c(Cl)cccc1NC(=O)Cc1ccc([N+](=O)[O-])cc1,23
CCOc1ccc2nc(NC(=O)CSc3nc(-c4ccccc4)c(C#N)c(=O)[nH]3)sc2c1,11
CC1(/[N+]([O-])=C/c2ccc(Cl)cc2Cl)CCCCC1=O (stereo not given),4
c1ccc2c(c1)N1CCCN=C1N2CCN1CCCCC1,10
CCN(CC)C(=O)N1CCn2c(nc3ccccc32)C1,5
Cc1cc(-c2nnc(-c3cccc(Cl)c3)o2)no1,20
C=CCNC(=O)CSc1nnc(-c2ccccn2)n1Cc1ccccc1,0
CCN(CC)S(=O)(=O)c1cccc(C(=O)N/N=C/c2ccc([N+](=O)[O-])o2)c1,17

# Some of the entries so far, bar-delimited.
mol | Biofilm kill mix
Cc1cc(-c2nnc(-c3cccc(Cl)c3)o2)no1 | 20
C=CCNC(=O)CSc1nnc(-c2ccccn2)n1Cc1ccccc1 | 0

# Additional records follow.
SMILES,Biofilm kill mix
O=C(CSc1nccn1-c1ccccc1)NO,-2
CN(C)c1ccnc2sc3c(SCc4ccc(Cl)cc4)ncnc3c12,8
COc1cccc(C2CC(c3cccs3)=NN2S(C)(=O)=O)c1 (stereo not given),12
O=C(NC(=S)NCCO)c1sc2ccccc2c1Cl,12
N#Cc1cccc(NC(=O)CSc2nnc(-c3n[nH]c4ccccc34)o2)c1,10
Cc1cccc2nc(CSc3nc4[nH]ncc4c(=O)n3-c3cccc(Cl)c3)cc(=O)n12,12
CN1C[C@@H]2C(c3ccc(C(F)(F)F)cc3)C3(c4ccc(C#N)cc4)CC2(C3)[C@H]1c1ccccc1 (stereo not given in full),17
COCC(C)n1c(C)cc(C(=O)COC(=O)CNC(=O)c2ccccc2)c1C (stereo not given),9
CCc1nnc(NC(=O)C2CCC(CNc3c(N4CCC(C)CC4)c(=O)c3=O)CC2)s1 (stereo not given),20
COc1ccc(C(C)=O)cc1CSc1nnc(Nc2c(C)cccc2C)s1,8
CCn1cnc2scc(-c3ccc(C)c(C)c3)c2c1=O,17
COc1ccc(CCN2C(=O)CC(NNc3ccc([N+](=O)[O-])cc3)C2=O)cc1OC (stereo not given),19
OC1CCCN(CC(O)c2ccccc2)C1 (stereo not given),16
N#C/C(=C\c1c(N2CCC(C(N)=O)CC2)nc2ccccn2c1=O)S(=O)(=O)c1ccc(Cl)cc1,6
CCOC(=O)CCSc1cc(C)c2ccccc2n1,8

# The last 4 records of the part before are carried over, then new ones follow.
SMILES,Biofilm kill mix
COc1ccc(CCN2C(=O)CC(NNc3ccc([N+](=O)[O-])cc3)C2=O)cc1OC (stereo not given),19
OC1CCCN(CC(O)c2ccccc2)C1 (stereo not given),16
N#C/C(=C\c1c(N2CCC(C(N)=O)CC2)nc2ccccn2c1=O)S(=O)(=O)c1ccc(Cl)cc1,6
CCOC(=O)CCSc1cc(C)c2ccccc2n1,8
Cc1nc(C(=O)O)nn1-c1ccc([N+](=O)[O-])cc1,13
CCc1c(C)c(C#N)c2nc3ccccc3n2c1-n1nc(C)cc1C,21
Cc1nc2ccccn2c1C(=O)N/N=C/c1ccc([N+](=O)[O-])o1,5
Cc1cc(C)n(-c2cc(N3CCN(S(=O)(=O)c4ccc(Br)cc4)CC3)ccc2[N+](=O)[O-])n1,11
Cc1ccccc1CC1(CO)CCCN(Cc2c(C)nn(C)c2Cl)C1 (stereo not given),0
Fc1ccc(-c2cn(-c3ccccc3)c3[n+]2CCS3)cc1,27
CCOc1ccc(CN2C(=O)CC(=O)N(S(=O)(=O)c3ccc(OCC)cc3)C2=O)cc1,25
Cc1ccc(C)c(NC(=S)NCCc2c[nH]c3ccccc23)c1,11
O=C1C=C(Nc2ccc(Cl)cc2Cl)CC(c2ccco2)C1 (stereo not given),7
COc1cc([N+](=O)[O-])cc(/C=N/N(CCC#N)C(C)=O)c1O,23
O=C(CNC(=O)c1ccccc1)OCc1cccc(Br)c1,16
Cc1ccc(OCC(=O)N(C)Cc2ccccc2)c([N+](=O)[O-])n1,17
O=C(NNc1ccccn1)c1ccc(Cl)nc1,9
O=C(CCSc1ccccc1)Nc1ccccc1Br,-9
Cc1cc(C)nc(N2CCN(C(=O)CCC(=O)Nc3nnc(CC(C)C)s3)CC2)n1,18
COc1cccc(NC(=S)NNC(=O)Cn2nc([N+](=O)[O-])cc2C)c1,9
CC(=O)NNC(=O)c1cc2c3ccccc3n(C)c2s1,15
CCC(=O)Nc1ccc(N2CCN(S(C)(=O)=O)CC2)cc1,13
C=C(C)CSc1nnc(CCCCCNC(=O)OC(C)(C)C)o1,28
COc1ccc(NC(=O)CSc2cc(C)ccc2C)cn1,0
CCC/C(O)=C1\C(=O)CCCC1=NCCc1c(C)[nH]c2ccc(OC)cc12,26
O=C(NCCOc1ccccc1)c1ccccc1NC(=O)C1CCCO1 (stereo not given),28
COc1ccnc(Oc2ccccc2)c1C(N)=O,8
COc1cc(NC(=O)c2ccno2)cc(C(=O)Nc2cccc(C(F)(F)F)c2)c1,20
O=[N+]([O-])c1cccc(/C=N\N2CCN(Cc3ccccc3Cl)CC2)c1,8
CN(C)/C=C/C(=O)c1cnc(-c2cccc(Cl)c2)s1,10
Nn1c(SCc2cccc(F)c2)nnc1-c1cccnc1,8
CC(=O)NC(CC(=O)c1ccc([N+](=O)[O-])cc1)C(Cl)(Cl)Cl (stereo not given),15
CN(CCc1ccccn1)C(=O)CC1C(=O)NCCN1Cc1ccccc1C(F)(F)F (stereo not given),4
CNc1ccc(NC(C)=O)cc1[N+](=O)[O-],14
COc1cc(CN2CC(=O)N(c3ccc(C)c(C)c3)C2=S)cc(OC)c1OC,11
COc1ccc(Nc2ncnc3ccc([N+](=O)[O-])cc23)c(OC)c1,15
COC(=O)c1ccc(OCC(O)CN2C(=O)c3ccccc3S2(=O)=O)cc1 (stereo not given),9
O=C(COC(=O)/C=C/c1cccs1)NC(c1ccccc1)c1ccccc1,9
CC1=C(C(=O)OCC(C)C)C2(O)C(=O)c3ccccc3C2(O)N1 (stereo not given),5
Cc1cc(NC(=O)c2ccc([N+](=O)[O-])cc2Cl)ccc1NC(=O)c1ccco1,10
O=C(O)CC1=C(c2ccc(F)cc2)CCC1=O,22
c1ccc(CCC2CCCCN2Cc2nc(C3CC3)no2)cc1 (stereo not given),23
CCCCn1nc(C(=O)Oc2ccc3c(C)cc(=O)oc3c2)c2ccccc2c1=O,7
Cc1ccccc1NC(=O)CSc1ccncc1,14
Cc1ccc(N2C(=O)CC(Nc3cccc4ccccc34)C2=O)cc1 (stereo not given),15
CCCOc1ccc(C2NC(=S)NC(c3ccccc3)=C2C(=O)Nc2ccc(C)cc2)cc1OC (stereo not given),11
Cc1cc(C)c(C(=O)Cn2nc(C(=O)O)c3ccccc3c2=O)cc1C,20
COc1ccc(CNC(=O)CC2C(=O)NCCN2CC(C)(C)C)c(OC)c1 (stereo not given),2
Cc1ccc(S(=O)(=O)CCNC(=O)Cc2ccccc2)cc1,12
Cc1cc(C(=O)NC2CCCCC2)c(C)n1-c1ccc(F)cc1,12
COc1ccccc1/C=C\C(=O)NCC(=O)N/N=C/c1ccc(O)cc1O,25
Nc1n[nH]c2cccc(Cl)c12,29
COC(=O)NNC(=S)Nc1ccc(Br)cc1,5
Cc1ccccc1NC(=S)N(CCc1c(C)[nH]c2ccc(F)cc12)Cc1cccnc1,11
COc1ccc(C)cc1NS(=O)(=O)c1cn(C)nc1C,7
CCCOc1ccc(-c2c(C(=O)N/N=C/c3ccc(C)cc3)nnn2-c2nonc2N)cc1,19
CCOC(=O)c1ccc(NC(=S)N(CCCN2CCCC(C)C2)Cc2ccco2)cc1 (stereo not given),17
CCn1c(O)c(N=NC(=O)C2C(=O)NCC2c2ccccc2)c2ccccc21 (stereo not given),8
CCOc1cc2[nH]c(=O)n(CCCN3CCN(c4ccc(OC)cc4)CC3)c(=O)c2cc1OCC,10
Clc1cccc(N2CCN(c3nnnn3-c3ccccc3)CC2)c1,16
CCOC(=O)CCC(NC(=O)CCCC(=O)NC(CCC(=O)OCC)C(=O)OCC)C(=O)OCC (stereo not given),17
C=CCOc1ccc(CNc2ccc(NC(=O)CC(C)C)cc2)cc1OC,12
O=C(COC(=O)/C=C/c1ccc([N+](=O)[O-])cc1)NCc1ccccc1,10
NC(N)=NS(=O)(=O)c1ccc(NC(=S)NC(=O)/C=C/c2cccs2)cc1,10
# (listing goes on)
SMILES,Biofilm kill mix
C=CCOc1ccccc1CNc1ccccc1C,8
COc1ccc(NC(=S)NC2CCCCCC2)c(OC)c1,13
O=C(NCCOc1ccccc1F)c1ccccc1SCc1ccc(F)cc1,5
CCN(CC)S(=O)(=O)c1ccc(OC)c(NC(=S)Nc2cc(C)ccc2C)c1,13
O=C(CN(c1ccc(Cl)cc1)S(=O)(=O)c1ccc(Cl)c([N+](=O)[O-])c1)NCCc1ccc(F)cc1,14
COc1ccc(C2CCCN2C(=S)Nc2cccc(C)c2C)cc1OC (stereo not given),15
COC(=O)c1cc(NC(=O)c2ccccc2)c(=O)oc1C,8
NC1=NC(=O)C(Cc2ccccc2)S1 (stereo not given),20
O=C(Nc1nnc(-c2ccco2)o1)C1CC1,11
Cc1ccc(Oc2ncccc2C(=O)NC2CCSC2=O)cc1 (stereo not given),9
Cn1c(=NC(=O)C2CCCCC2)sc2cc([N+](=O)[O-])ccc21,11
CC(C)Oc1cccc(OCCN2C(=O)c3ccccc3C2=O)c1,22
CCOc1ccc(NC(=O)c2sc(N3CCOCC3)nc2-c2ccccc2)cc1,7
CC[n+]1c(C)sc2c3ccsc3ccc21,25
Cn1c(=O)c(=O)n(C)c2cc(S(=O)(=O)N3CCN(c4ccc(F)cc4)CC3)ccc21,18
CCOC(=O)CC(NC(=O)c1cc2cc(Br)ccc2oc1=O)c1cccc([N+](=O)[O-])c1 (stereo not given),21
